Screening results from PubChem BioAssay.
CSC inhib: blocks cancer stem cells; 300,000 tested, 1.1% active; inhibition, % at 7.5 µM; cancer stem cell-like cells viability, luminescence;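 active = mean at 75% or more and at least half the replicates too; tested in HMLE shEcad cells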;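 also: 0% = median of negative and 100% = median of positive control wells; the first replicate is given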
PABP polyA inh: PABP-poly(A) binding inhibition | P11940 | PABP-poly(A) RNA binding, fluorescence polarization | inhibition, % at 35 µM | 290,000 tested, 1% active;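 active = 50% or more with normal probe brightness, or confirmed in later tests; about a fifth of its hits are not listed in these tables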;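 also: calls also rest on retests at 20 µM and on dose response follow-up; controls were probe without protein and protein plus probe with vehicle; some compounds called inactive have numbers as strong as hits; many hits fall short of the cut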
Target sequence (P11940 whole entry, looked up): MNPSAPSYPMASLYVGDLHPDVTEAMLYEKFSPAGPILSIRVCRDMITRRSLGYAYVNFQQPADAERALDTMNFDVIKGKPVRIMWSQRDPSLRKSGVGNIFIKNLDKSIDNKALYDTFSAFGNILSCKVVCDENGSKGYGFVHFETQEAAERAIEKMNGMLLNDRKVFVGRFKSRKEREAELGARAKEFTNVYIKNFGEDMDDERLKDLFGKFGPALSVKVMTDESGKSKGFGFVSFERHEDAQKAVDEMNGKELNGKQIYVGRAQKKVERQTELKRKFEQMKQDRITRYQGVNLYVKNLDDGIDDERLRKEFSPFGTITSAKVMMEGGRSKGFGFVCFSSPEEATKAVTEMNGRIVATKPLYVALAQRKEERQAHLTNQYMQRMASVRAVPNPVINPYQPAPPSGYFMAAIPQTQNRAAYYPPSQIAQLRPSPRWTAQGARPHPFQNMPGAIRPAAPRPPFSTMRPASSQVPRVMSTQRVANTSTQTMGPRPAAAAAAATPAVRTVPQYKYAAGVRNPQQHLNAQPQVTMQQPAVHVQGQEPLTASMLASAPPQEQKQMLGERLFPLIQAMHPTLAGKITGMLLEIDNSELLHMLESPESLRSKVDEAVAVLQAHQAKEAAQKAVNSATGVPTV
MT1-MMP act inh: MT1-MMP (human) activation inhibition; P50281; HT1080 RFP-PRO-GFP cells, GFP/RFP ratio fluorescence, overnight; percent of plate control window, DMSO zero; GFP/RFP ratio change, % at 20 µM; 360,000 tested, 0.061% active;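 active = GFP/RFP ratio change of at least 30% with cell ATP level not reduced by more than half and red fluorescence within 50% of control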; also: strong numbers were not always called active
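Read-out: GFP/RFP fluorescence ratio; Test system: RFP-PRO-GFP reporter HT1080 cells; Compound dosing: single-point 20 µM compound, 1% DMSO; Times: overnight compound exposure at 37 °C.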
HIV Env fusion: HIV envelope-mediated fusion inhibition | HeLa-JRFL Env/CEM21 cell fusion, luciferase | inhibition, % at 12.3 µM | 360,000 tested, 1.1% active;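 active = mean replicate inhibition score of at least 50 and every replicate individually at or above 50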;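 also: 0% = plate neutral controls and 100% = maraviroc near 300 nM; one replicate is shown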
Rce1 inh: yeast Ras-converting enzyme inhibition. 290,000 tested, 0.27% active. Q03530. calls only. yeast membranes, quenched prenylated peptide cleavage fluorescence;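 active = fall in fluorescence gain of 50% or more versus controls, with final raw signal at or below 3038400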;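 also: plate controls were neutral control wells for no effect and wells lacking membranes for full effect; tested at 10 µM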
eIF4H inh: inhibitors of RNA binding by human eIF4H | Q15056 | eIF4H fluorescence polarization binding assay | inhibition, % at 35 µM | 290,000 tested, 0.94% active;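 active = 50% or more with normal probe brightness, or confirmed in later tests; about a fifth of its hits are not listed in these tables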;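 also: calls also rest on retests at 20 µM and on dose response follow-up; 0% = protein and probe with vehicle and 100% = probe without protein; strong numbers were not always called active; many hits fall short of the cut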
Yeast UUG start: alters start codon recognition fidelity in yeast. S. cerevisiae UUG-firefly luciferase reporter, luminescence/redox ratio. activity score, % at 18.7 µM. 350,000 tested, 0.13% active. AID 602363;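 active = replicate mean at a twofold rise or more, about +100% in these data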;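 also: firefly luciferase made from a UUG start codon reports start codon fidelity; reporter light over untreated wells divided by growth signal over untreated wells; some hits fall short of that in this replicate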
eIF4H inh retest: second read-out of eIF4H inh, no call of its own (marks repeat the call); inhibition, %; compound at 20 µM; confirmation average;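 mean of two retest wells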
PABP polyA inh retest: recorded beside PABP polyA inh, whose call it bears; inhibition, %; compound at 20 µM; confirmation repeats;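 mean of two retest wells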
MT1-MMP act inh RFP: second read-out of MT1-MMP act inh, no call of its own (marks repeat the call); RFP signal change, %; measured here: RFP expression control read;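 0 = vehicle wells; hits needed this value within 50% of zero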
Active calls of the source: *; i = inactive; x = not tested or not shown; & = joins results of further samples; ! = not active in a repeat. A portion of the library; the hit share may differ from the screen's.

The opening five compounds (preview)
SMILES	CSC inhib	PABP polyA inh	MT1-MMP act inh	MT1-MMP act inh RFP	HIV Env fusion	Rce1 inh	eIF4H inh	Yeast UUG start	others
COc1ccc(NCN2C(=O)CCC2=O)cc1	16.5	0.6	1.1	7.2	x	i	8.8	-17.0
N#Cc1c2c(c(NCCCN3CCOCC3)n3c1nc1ccccc13)CCC2	x	70.2*	-10.9	-3.6	-59.0	i	93.1*	-10.8	eIF4H inh retest=59.6*;PABP polyA inh retest=52.3*
Cc1ccc2c(c1)N(CCC(=O)NCc1ccccn1)C(=O)CO2	-5.5	4.4	3.8	-0.5	-27.3	i	7.8	2.3
CC(C)C(C)NC(=O)CN1C(=O)NC2(CCc3ccccc32)C1=O (stereo unspecified)	-19.9	3.4	0.7	6.0	-8.8	i	-7.4	-15.4
CC(=O)Nc1nc2c(ncn2COCCOC(C)=O)c(=O)[nH]1	x	-11.7	x	x	x	i	9.3	x

The list itself, from the first entry:
SMILES	CSC inhib	PABP polyA inh	MT1-MMP act inh	MT1-MMP act inh RFP	HIV Env fusion	Rce1 inh	eIF4H inh	Yeast UUG start	others
COc1ccc(NCN2C(=O)CCC2=O)cc1	16.5	0.6	1.1	7.2	x	i	8.8	-17.0
N#Cc1c2c(c(NCCCN3CCOCC3)n3c1nc1ccccc13)CCC2	x	70.2*	-10.9	-3.6	-59.0	i	93.1*	-10.8	eIF4H inh retest=59.6*;PABP polyA inh retest=52.3*
Cc1ccc2c(c1)N(CCC(=O)NCc1ccccn1)C(=O)CO2	-5.5	4.4	3.8	-0.5	-27.3	i	7.8	2.3
CC(C)C(C)NC(=O)CN1C(=O)NC2(CCc3ccccc32)C1=O (stereo unspecified)	-19.9	3.4	0.7	6.0	-8.8	i	-7.4	-15.4
CC(=O)Nc1nc2c(ncn2COCCOC(C)=O)c(=O)[nH]1	x	-11.7	x	x	x	i	9.3	x
CN1CC(=O)N(CC(=O)Nc2ccc(N3CCOCC3)cc2)C1=O	x	x	4.2	4.4	0.1	x	x	-28.1
Cc1cnc2nc(-c3ccccc3)ccc2c1	x	x	2.0	0.3	-51.0	x	x	-46.3
O=C(O)C1CCCCC1C(=O)Nc1ccc(S(=O)(=O)N2CCOCC2)cc1 (stereo unspecified)	x	x	2.7	2.0	-4.6	x	x	-13.6
Fc1ccc(-c2nc3ccc(Cl)cn3c2Cc2ccccc2C(F)(F)F)cc1	x	x	-3.3	-5.6	-117.9	x	x	-9.5
CCN(CC(=O)Nc1ccccc1C(F)(F)F)C(=O)c1ccc(N2C(=O)CCC2=O)cc1	-11.6	1.9	-1.8	2.0	-2.2	i	-3.6	-21.6
O=C1NC(=S)N/C1=C\C=C\c1ccccc1	-6.6	-2.2	1.0	-0.3	-7.6	i	-3.3	-6.8
OCC[C@@H]1C[C@H](O)[C@@H](O)[C@]2(Cc3ccccc3CCO2)O1	-11.3	3.5	-0.4	2.8	3.3	i	3.4	-2.6
C=CCOc1c(Br)cc(CNn2c(C)n[nH]c2=S)cc1OC	-2.8	-14.4	2.8	-2.4	20.6	i	-4.5	-19.4
O=C(CSC1=NCCS1)Nc1ccc(F)cc1	-10.2	-4.3	5.7	3.8	13.6	i	-3.7	-13.1
Cc1ccccc1OCC(=O)OCC(=O)c1ccc(OC(=O)c2ccccc2)cc1	1.3	-8.9	0.8	6.5	-21.5	i	-5.2	-22.9
COc1ccc(/C=C/C(=O)NCC2COc3ccccc3O2)c(OC)c1 (stereo unspecified)	-1.2	3.5	2.9	-1.3	0.4	i	-4.1	-18.3
Cc1cc(C)cc(N(CC(=O)NC2CCCCCC2)S(=O)(=O)c2c(C)[nH]c(=O)[nH]c2=O)c1	-4.2	4.1	0.3	-3.8	-4.2	x	-8.0	x
COCCN(C(=O)CSc1ncn[nH]1)c1c(N)n(Cc2ccccc2)c(=O)[nH]c1=O	-7.5	x	-2.7	2.8	1.9	i	x	-13.4
Cc1csc2c(=O)sc(NC(=O)c3ccco3)nc12	-6.5	4.8	2.1	0.1	-10.3	i	-0.5	-19.6
CCc1nc(NCCO)c(C#N)c2c1CSC(C)(C)C2	-2.1	6.8	-1.2	1.5	-0.6	i	2.9	-9.6
COc1ccccc1NC(=O)Nc1nnc(Cc2ccccc2F)s1	57.7	5.0	3.0	-1.3	1.3	i	-7.9	x
CCO[C@H]1OC(C(=O)N2CCN(C)CC2)=C[C@@H](C2CC2)[C@@H]1CCCO	-4.3	-7.4	1.1	4.9	-1.0	i	-3.0	6.4
CC1(C)CC(=O)C=C(NCc2ccco2)C1	6.3	4.3	-2.0	-1.9	x	i	-7.0	x
C/C(=N\NC(N)=S)c1ccccc1	-5.5	0.1	1.8	5.9	-20.5	i	-5.5	-38.5
O=C(O)CSc1nc2c(c(C(F)(F)F)n1)CCc1ccccc1-2	-5.8	-1.1	-2.9	-0.8	-7.6	i	-6.7	x

Continuation:
SMILES	CSC inhib	PABP polyA inh	MT1-MMP act inh	MT1-MMP act inh RFP	HIV Env fusion	Rce1 inh	eIF4H inh	Yeast UUG start	others
CC1=NN(C(N)=S)C(=O)C1N=Nc1cccc(C(=O)O)c1 (stereo unspecified)	x	5.1	0.0	-5.1	27.2	i	-4.0	-21.7
Cc1ccc(C(C)NC(=O)c2ccco2)cc1C (stereo unspecified)	x	0.8	7.0	3.2	-26.3	i	-3.5	-13.7
O=C(Nc1cccc(C(F)(F)F)c1)C1CCN(S(=O)(=O)c2ccc(N3CCCC3=O)cc2)CC1	10.1	-0.6	8.3	-29.3	29.2	i	-4.9	-4.3
O=C(C1=C(O)C(=O)N(CCN2CCOCC2)C1c1ccc(F)cc1)c1cc2ccccc2o1 (stereo unspecified)	-11.7	6.5	-1.1	3.3	-6.7	i	7.1	-2.3
Cn1cc(C(=O)N2CCN(c3cccc(Cl)c3)CC2)c(=O)c2cc(S(=O)(=O)N3CCOCC3)ccc21	x	-0.8	-1.8	-3.6	-6.4	i	-0.1	9.6
COc1ccc(OCC(=O)OC2CCN(C)CC2)cc1	-5.2	-7.0	4.0	-2.2	x	i	-0.6	-1.8
COc1ccc(CNC(=O)c2c([S-])n(-c3ccc(C)cc3)c3cccc[n+]23)cc1	-12.9	-1.3	1.3	-4.7	26.4	i	-12.7	x
CC1COC(c2cccn2Cc2ccccc2Cl)=N1 (stereo unspecified)	-20.7	8.0	6.3	4.3	x	i	-4.8	-19.2
COc1ccc2nc(/C=N/NC(=O)CCCCCNC(=O)OC(C)(C)C)ccc2c1	-2.2	-3.7	-1.9	-6.2	-5.7	i	6.0	x
Cn1cnnc1SCC(=O)Nc1cc(C(F)(F)F)ccc1N1CCOCC1	-20.4	7.9	-0.2	2.8	2.5	i	-5.3	x
CCO[C@@H]1OC(C(=O)N2CCCCCCC2)=C[C@H](c2cn(C(C)=O)c3ccccc23)[C@H]1CCCO	-16.5	-0.3	6.1	1.8	x	i	2.5	-13.0
O=C(NCc1cccs1)C(=O)NCC1OCCCN1S(=O)(=O)c1ccccc1 (stereo unspecified)	-8.7	9.5	-2.0	-1.7	5.4	i	-7.5	-10.2
CCCCc1nc2cc(C(=O)N3CCC[C@H]3CO)ccc2o1	-11.6	6.3	2.9	-0.1	-2.4	i	-2.0	-0.2
COCCCn1c(C2CCCCC2)nc2oc3cc(OC)ccc3c(=O)c2c1=O	-16.2	-2.0	2.0	-1.0	-109.4	i	-3.9	1.4
COc1cccc(C2C(C(N)=O)=C(C)Nc3nc(-c4cccc(Cl)c4)nn32)c1 (stereo unspecified)	6.1	1.6	1.8	-4.2	-23.7	i	-5.9	-8.8
Cc1ccc(NC(C)c2cc(Cl)ccc2O)cc1 (stereo unspecified)	-0.9	-2.9	7.5	4.8	-25.9	i	8.4	1.5
CCOC(=O)/C(C#N)=C/c1c[nH]c2ccccc12	-18.2	10.1&-6.2	1.4	5.1	-42.2	i	-1.9&-1.2	x
O=C(Nc1ccc(C2=NCCN2)cc1)c1ccc(Cl)c(C(=O)Nc2ccc(C3=NCCN3)cc2)c1	-20.1	36.2	x	x	x	i	14.2	x
O=C(Nc1ccc(NC(=O)C2CCCCC2)cn1)c1ccco1	x	21.8	-4.9	2.6	x	i	-6.6	-35.5
Cc1ccc(Cn2ccc(NC(=O)c3noc4c3CCCC4)n2)cc1	-6.6	0.5	1.8	-4.0	-52.9	i	0.4	-1.1
NC(=O)c1nsc(C(=O)N(CCc2ccccc2)C(C(=O)NC2CCCC2)c2ccco2)c1N (stereo unspecified)	-4.7	2.1	-1.8	-3.4	x	i	-7.5	-7.4
COc1cc(NC(=O)COC(=O)/C=C/c2ccc(OC)c(OC)c2)cc(OC)c1	1.5	11.3	9.4	-0.4	-2.5	i	-4.1	0.1
NS(=O)(=O)c1ccc(CCNC(=O)C2CCN(S(=O)(=O)c3c(Cl)cccc3Cl)CC2)cc1	-13.0	0.0	6.9	-1.1	8.6	i	-0.3	-8.9
CC(C)C(=O)NC(c1ccccc1Cl)c1c(O)ccc2ccccc12 (stereo unspecified)	-2.8	-6.2	-6.8	-14.0	x	i	0.6	x
CC(=O)Nc1cccc(-c2ccnc3c2CC(C)(C(=O)Nc2ccc4c(c2)OCO4)O3)c1 (stereo unspecified)	x	x	23.3	5.8	-19.0	x	x	4.1

Additional results follow:
SMILES	CSC inhib	PABP polyA inh	MT1-MMP act inh	MT1-MMP act inh RFP	HIV Env fusion	Rce1 inh	eIF4H inh	Yeast UUG start	others
COc1ccc(NS(=O)(=O)c2cccc(C(=O)NNC(=O)c3ccc(Br)o3)c2)cc1	0.9	x	0.7	-8.2	x	i	x	-17.3
COc1ccc(-c2cc(=O)c3cc(F)ccc3[nH]2)cc1	7.5	9.9	2.8	2.0	-12.2	i	4.6	-14.5
CCCCCCSc1cccc(-c2nc3ccc(Cl)cn3c2NCc2ccccc2)c1	75.9*	x	-6.9&6.4	-1.9&-6.0	72.3*!	i	x	-42.9
CCc1nnc(SCc2ccc(C(=O)OC)o2)n1N	0.9	-3.0	-1.6	4.3	x	i	-12.3	-1.5
Cc1cccc(NS(=O)(=O)c2cccc(C(=O)N3CCCCCC3)c2)c1	-15.4	x	-3.1	-6.7	x	i	x	-9.3
Cc1nc2ccc(NC(=O)c3cccc(C(F)(F)F)c3)cc2o1	-3.1	7.9	9.6	0.6	-71.8	i	-0.4	-17.8
Cc1ccc2nc(-c3cccc(Br)c3)c(CC3CCCCC3)n2c1	x	x	-2.6	2.4	-29.0	x	x	-0.8
Cc1ccc(C)c(N2CCN(C(=O)CCNC(=O)Cn3ccc4ccccc4c3=O)CC2)c1	-2.0	2.7	0.7	-1.3	37.2	i	-8.5	-2.8
COc1cccc(NC(=O)c2oc3ccc(S(=O)(=O)N4CCOCC4)cc3c2C)c1	-8.1	21.0	4.5	-0.3	-10.2	i	-6.0	x
Cc1ccc(Cl)cc1-c1cc(C(=O)N2CCc3ccccc3C2)[nH]n1	x	x	2.6	1.8	-3.8	x	x	-19.8
CCCC(=O)Nc1nnc(S(=O)(=O)N(CC)c2ccccc2)s1	-4.2	5.9	1.4	3.0	1.2	i	-0.2	-12.5
O=C(Cn1nc2ccccc2n1)N/N=C/c1cc([N+](=O)[O-])ccc1O	7.1	3.6	6.2	-0.3	-27.1	i	12.1	-21.8
Cc1ccc(C(=O)N/C(=C\c2cn(-c3ccccc3)nc2-c2ccccc2)C(=O)N2CCOCC2)cc1	-5.8	9.2	5.7	-0.1	-53.8	i	-4.9	x
CCN(C(=O)c1ccc2c(=O)n3c(nc2c1)CCCCC3)c1ccc(F)cc1	-28.2	-5.1	-2.5	-4.1	4.9	i	-6.5	3.0
CO[C@@]1(NC(=O)C2SC(=C(C(N)=O)C(=O)O)S2)C(=O)N2C(C(=O)O)=C(CSc3nnnn3C)CS[C@@H]21 (stereo partly specified)	-6.4	x	-1.9	1.9	-2.0	x	x	-33.1
CCC(C)NC(=O)C1CCN(S(=O)(=O)c2cccnc2)CC1 (stereo unspecified)	-2.9	4.9	0.9	3.4	x	i	3.2	-0.6
